# Bioassay records deposited in PubChem by several laboratories.
# LANA-H2B inh – blocks KSHV LANA binding to histone H2A/H2B; 0.6% of 320,000 active; inhibition, % (no concentration beside the values); cell-free LANA-H2A/H2B peptide, fluorescence polarization; Q9QR71; in the data active = inhibition mostly above about 10%, no sharp cut-off; inactive = mostly below about 6.7%;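 note: stock transfer was 7.5 nL into about 10 µL; 0% = median of vehicle wells and 100% = median of positive control wells; one replicate is shown; the record names a cut of 25% in any replicate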
# Ecoli growth – inhibitors of Escherichia coli growth; OD600, 23 h; hits give low values; OD600 absorbance (concentration not given with the values); 0.21% of 330,000 active;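 active = OD600 absorbance below the run mean of sample wells minus 3.6 SD, in any replicate, cut at about 0.56 in these data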;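 note: stock transfer was 300 nL into about 60 µL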
# ALR H2O2 inh – blocks human ALR sulfhydryl oxidase activity; purified ALR, DTT oxidation, H2O2 HRP-luminol luminescence; AID 485317; inhibition, % (concentration not given with the values); P55789; 3.8% of 290,000 active;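 active = mean and each replicate at 75% or more; inconclusive = only one of the two met; inactive = neither met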;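 note: stock transfer was 7.5 nL into about 7.5 µL; 0% = neutral wells and 100% = wells with inactivated enzyme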
# HNF4A DNA FP – change in binding of human HNF4 alpha to DNA. P41235. activity change, % at 10 µM. HNF4a-FITC DNA binding, fluorescence polarization, 1 h. 0.3% of 360,000 active; in the data active = activity change above about 30%, passing the limit was not always enough;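 note: controls were the assay level and a saturating level of protein; the project sought stronger binding though the title names inhibitors; some compounds called inactive have numbers as strong as hits; positive values seem to mean higher polarization but the record does not say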
# UCH37 DUB inh – human UCH37 deubiquitinating enzyme inhibition. purified proteasome/UCH37, Ub-AMC cleavage fluorescence. 0.33% of 330,000 active. AID 588478. inhibition, % (concentration not given with the values);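 active = mean of two replicates above 20%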;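 note: 0% = compound-free wells with enzyme and 100% = wells lacking proteasome; stock transfer was 100 nL into about 20 µL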
#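 Signal – fluorescence, ex 355 nm, em 460 nm · System – Proteasome-bound UCH37 · Input – 0.15 nM proteasome as dispensed · Timing – 30 min preincubation with enzyme, 25 min cleavage at room temperature · Read-out basis – percent inhibition of cleavage signal versus uninhibited and no-proteasome wells · Medium – Tris-HCl pH 7.4 with ATP-MgCl2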
# FGF22 binding – binders of recombinant human FGF22 by thermal shift; Q9HCT0; SYPRO orange fluorescence; percent of sucrose octasulfate shift, DMSO zero; calls only at 9.99 µM; 1.5% of 340,000 active;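 active = melting point raised past a set limit in the mean and every replicate; inconclusive = no clear call; three in four hits are not shown here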
# B2AR ag – activates human beta-2 adrenergic receptor causing internalization; P07550; Am2.2-beta2AR cells, FAP receptor internalization, flow cytometry; reference of the scale not given here; response, % (concentration not given with the values); 0.43% of 340,000 active; AID 504454;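 active = response above a set limit, near 3 SD of response in nonfluorescent compounds, cut at about 42% in these data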;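 note: stock transfer was 100 nL into about 11 µL; a reference agonist was the positive control; negative values mostly stem from fluorescent compounds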
# * hit, by the source's call; i = inactive; ? = inconclusive; . = no result given.
canonical_smiles	LANA-H2B inh	Ecoli growth	ALR H2O2 inh	HNF4A DNA FP	UCH37 DUB inh	FGF22 binding	B2AR ag
Nc1ccc(N)c(C(=O)O)c1	-0.2*	.	-27	-54	.	.	7
COCCCNC(=O)CNC(=S)N(Cc1ccccc1F)C1CCCCC1	-2.7	0.75	-3	-2.4	0.3	.	20
O=C(Nc1ccc(O)cc1C(=O)O)c1cccs1	3.0	0.7	-3	1.2	5.6	.	-1
CCc1noc(C)c1C(=O)N1CCCSC1=Nc1ccccc1OC	-0.7	0.66	-4	-1.1	-1.0	i	1
COc1ccccc1N(C(=O)c1snc(C(N)=O)c1N)C(C(=O)NC1CCCCC1)c1cccc(OC)c1OC (stereo unspecified)	7.2	0.65	.	-0.3	-73	i	2
CCOc1ccc(Cn2c3ccc(OC)cc3c3nc4ccccc4nc32)cc1	6.8	0.69	.	-55	4.7	i	5
c1ccc2cc(OCCN3CCCC3)ccc2c1	-5.3	0.65	-12	0.7	1.1	.	3
CN1CCCN(S(=O)(=O)c2ccccc2)CC1	-3.7	0.65	1	3.0	1.2	i	-4
Cc1ccccc1Cc1c(C)nc2c(C(=O)NCc3ccc4c(c3)OCO4)cnn2c1C	-11	0.71	-3	1.7	-158	i	14
CC(C)C[C@H](NC(=O)N1CC(=O)Nc2ccccc21)C(=O)N[C@@H](Cc1ccccc1)C(=O)O	2.9	0.73	5	-2.1	1.6	i	2
CCCC(=O)Nc1nnc(CCN2CCCCC2)s1	-2.5	0.7	-5	-1.3	1.7	.	-4
CC(=O)c1cc(CN2CCN(CCC(C)C)C(CCO)C2)cs1 (stereo unspecified)	0.6	0.69	.	0.3	2.3	i	-1
COc1ccc(NC(=O)CSc2nc(N)c3cc4c(nc3n2)CC(C)(C)OC4)cc1	-2.9	0.67	-10	1.6	2.5	i	-1
CCCOc1ccc(-c2nc(OCC)c3ccccc3n2)cc1	2.0	0.69	-1	0.2	-1.9	.	0
COCCN(C(=O)c1cccc(-n2cnnn2)c1)c1c(N)n(CC(C)C)c(=O)[nH]c1=O	2.5	0.68	-7	0.2	4.1	i	1
Cc1ccccc1OCC(=O)N1N=C(C(F)(F)F)CC1(O)C(C)(C)C (stereo unspecified)	-0.5	0.67	1	5.3	6.4	.	-2
CC(=O)Oc1ccccc1C(=O)C=Cc1cccc([N+](=O)[O-])c1	.	0.63	.	-0.5	3.6	i	65*
O=C1c2ccccc2C(=O)c2cc(NC(=O)C3CC3)ccc21	9.2	0.72	-1	-4.0	2.8	i	8
O=C(Cc1ccccc1)NN1C(=O)C2C3C=CC(C3)[C@@H]2C1=O (stereo partly specified)	1.2	0.74	-3	-2.5	0.6	.	-6
COc1ccc(N/N=C(\C#N)C(=N)N2CCOCC2)cc1	-0.7	.	99*	-3.4	.	i	0
COc1ccc(-c2nnc(SC(=O)N3c4ccccc4Sc4ccccc43)o2)cc1	-2.2	0.68	95*	-1.7	0.0	.	17
COC(=O)c1cccc(COC(=O)c2ccccc2NC(=O)c2ccco2)c1	2.4	0.71	.	7.6	-1.4	.	4
O=C(c1ccc(Cl)c(S(=O)(=O)N2CCCCC2)c1)N1CCCCC1	-3.6	0.69	-19	-1.5	4.9	i	-1
COc1ccc([C@@H]2[C@H]3C(=O)N(c4cccc(C(F)(F)F)c4)C(=O)[C@H]3ON2C)cc1	-1.7	0.65	-7	0.5	1.3	.	10
O=C1c2ccccc2-c2ccc(C(=O)N3CCCCC3)cc21	1.3	0.66	10	1.6	2.2	.	2
CC(C)(CN1CCC(Cc2ccccc2)CC1)NS(=O)(=O)c1ccccc1	.	0.68	.	-2.3	0.0	i	32
CCOC(=O)c1ccc(NC(=O)Nc2ccc(S(N)(=O)=O)cc2)cc1	-0.7	0.74	0	5.9	5.9	.	-4
O=C(C1=COCCO1)N1CCN(C(c2ccccc2)c2ccccc2)CC1	-2.2	0.66	3	-0.8	0.8	.	8
Cc1cccc(N2CCN(CC(O)COc3ccc(Cl)cc3)CC2)c1 (stereo unspecified)	-4.6	.	2	-0.1	.	i	23
Cc1cccc(CCN(CC(=O)NC2CCCCC2)C(=O)c2csnn2)c1	9.0	0.7	3	-0.7	1.6	.	-2
COc1cc(CN2CC(=O)N(c3cccc(Cl)c3C)C2=S)cc(OC)c1OC	-3.5	0.68	4	-1.5	3.3	i	2
CCOC(=O)N1CCN(C(=O)CCn2c(=S)[nH]c3ccccc3c2=O)CC1	3.8	0.73	.	2.4	3.4	i	-19
Cc1ccccc1-n1c(-c2ccc(=O)[nH]n2)n[nH]c1=S	-2.0	0.62	17	1.4	5.3	.	6
COc1cc(C(=O)NCCC(c2ccccc2)c2ccccc2)cc(OC)c1OC	-6.7	0.69	.	2.8	5.5	i	-2
CC(C)CCOCc1nc2sc3c(c2c(=O)[nH]1)CCC(C)C3 (stereo unspecified)	-3.1	0.75	3	12	-6.4	i	-4
CC(=O)Nc1ccc(S(=O)(=O)NCc2cn3c(C)csc3n2)cc1	3.4	0.72	2	3.7	1.1	.	-10
CN(Cc1cn(-c2ccccc2)nc1-c1cc2ccccc2o1)C(=O)CCC(=O)O	0.1	0.69	12	0.3	-1.6	i	-16
O=C(NN1C(=O)C2C3C=CC(O3)C2C1=O)c1ccncc1 (stereo unspecified)	1.0	.	0	-0.3	1.0	i	16
CCOc1ccc(C2=Nc3ccccc3C(c3ccc(N4CCOCC4)cc3)=NN2)cc1	-6.8	0.72	-7	-5.7	4.0	.	0
CCN1C(=NCc2ccc(OC)cc2)N[C@@H](c2ccccc2)[C@H](C(=O)OC)[C@H]1C	9.6	.	-10	-2.6	-1.8	i	9
c1ccc(CSc2nnc(-c3ccccc3)c(-c3ccccc3)n2)cc1	-4.6	0.7	15	-2.3	1.8	i	-4
O=C(O)c1cc(NC(=O)c2ccccc2F)cc(NC(=O)c2ccccc2F)c1	3.9	0.7	5	-4.1	4.0	i	-3
CCOC(=O)c1c(NC(C)=O)sc(/C(C)=N/Nc2ccc(C(=O)O)cc2)c1C	0.8	.	?	2.5	.	i	11
Cc1ccc(OCCNC(=O)c2cccc(Oc3ccc(C(F)(F)F)cc3[N+](=O)[O-])c2)cc1	-2.2	0.7	.	-4.9	2.8	.	-9
CCN(C(=O)C(C)N1C(=O)/C(=C/c2cccs2)SC1=S)C1CCS(=O)(=O)C1 (stereo unspecified)	-9.2	0.71	0	-3.3	3.6	i	-8
Cc1cccc(NC(=O)c2c(O)c3ccccc3[nH]c2=O)c1	3.9	0.7	-5	-0.2	-137	i	14
COc1ccc(CN2CCC(c3nc4ccc(Cl)cc4[nH]3)CC2)cc1	0.6	0.63	-7	4.8	7.1	i	1
CNC(=O)NC(=O)COC(=O)/C=C/c1cccc(Br)c1	-10	0.7	2	-0.7	5.2	i	2
Cc1ccc(OCC(=O)Nc2ccc(S(=O)(=O)Nc3ccccn3)cc2)cc1	0.9	0.76	-4	-4.2	-2.9	i	3
CN(Cc1ccc(F)cc1)Cc1nc(-c2ccccc2)no1	-2.9	0.64	2	-5.4	4.8	i	0
Cc1nn(-c2ccccn2)c2c1C(=O)C(Br)CC2 (stereo unspecified)	.	0.68	.	-1.6	1.0	.	-5
CSc1ncc(CN2CCN(C3CCN(C(C)C)CC3)C(CCO)C2)cn1 (stereo unspecified)	.	0.73	.	-0.3	3.2	i	1
CCCc1cc(=O)n2nc(N3CCC(C(=O)Nc4cccc(C(C)=O)c4)CC3)sc2n1	1.2	0.66	0	2.2	0.6	i	3
O=c1c(Br)ccc(Br)cc1Br	.	0.52*	.	2.7	9.7	i	70*
CC1(c2ccccc2Cl)NC(=O)N(CC(=O)N2CCc3ccccc3C2)C1=O (stereo unspecified)	.	0.68	.	-1.4	2.5	i	-8
Cc1cc(C)n(-c2nc3c(c(=O)[nH]c(=O)n3C)n2Cc2ccccc2)n1	-9.3	0.68	-4	-2.6	4.5	.	-1
CN(Cc1cccnc1)C(=O)c1cc(COc2ccc3c(c2)CCCC3)on1	-1.9	0.62	5	-2.6	3.8	i	-5
Cc1cc(C(=O)COC(=O)/C=C/c2cccc(F)c2)c(C)n1C	-3.1	0.71	-3	4.1	-0.8	i	-3
O=C(CN1C(=O)C(=O)N(Cc2ccccc2)C1=O)Nc1ccc(F)c(Cl)c1	-0.9	0.67	-10	-3.4	2.7	i	-5
CCn1c(SCC(=O)Nc2nonc2C)nnc1-c1ccco1	-2.8	0.63	-9	3.4	0.2	.	-7

# Further results.
canonical_smiles	LANA-H2B inh	Ecoli growth	ALR H2O2 inh	HNF4A DNA FP	UCH37 DUB inh	FGF22 binding	B2AR ag
Cc1ccc(C)c(NS(=O)(=O)c2cc(C(=O)Nc3ccccc3-c3ccccc3)ccc2Cl)c1	-6.8	0.73	-2	-1.8	1.9	i	3
Cc1ccc(S(=O)(=O)N2CCCCC2)cc1NC(=O)c1cccnc1	.	0.7	.	2.4	1.4	i	-5
FC(F)(Cl)c1nnc2ccc(Cl)nn12	-4.0	0.69	.	-3.3	-4.0	i	3
O=C(O)c1ccc(CNS(=O)(=O)c2ccc3ccccc3c2)cc1	0.6	0.7	-14	1.2	-0.4	i	0
O=C(CCCN1C(=O)NC2(CCCC2)C1=O)N1CCN(S(=O)(=O)c2ccccc2)CC1	-3.5	0.67	0	-0.1	0.9	i	11
CN(CCCC(=O)Nc1ccccc1F)S(=O)(=O)c1ccc(F)cc1	0.6	0.66	0	2.2	1.0	i	-3
Cc1cc(OCC(=O)N(C)C2CCCCC2)cc(C)c1Cl	-0.2	0.68	.	6.8	1.6	i	-8
COc1ccc(NS(=O)(=O)c2nnc(NC(=O)c3ccccc3F)s2)cc1	3.2	0.72	-1	1.0	7.1	i	7
CCn1c(=O)cc(OCC(=O)N2CCCCCC2)c2ccccc21	1.0	0.68	-4	2.9	4.1	.	-12
CCOC(=O)C1=C(CSc2nc(-c3ccncc3)ccc2C#N)OC(N)=C(C#N)C1c1ccc(OC)cc1 (stereo unspecified)	2.4	0.71	.	14	-0.8	.	-6
COc1ccccc1C1OCC(C)(C)CO1	.	0.7	.	3.0	4.3	i	-3
CCc1c(C)sc(NC(=O)Cn2nc(C)c([N+](=O)[O-])c2C)c1C(N)=O	6.1	0.71	-5	0.9	2.6	.	1
CC(C)CNc1nc(S(=O)(=O)c2ccccc2)c(Cl)s1	-1.0	0.67	1	-2.1	0.8	i	3
Cc1[nH]c(=O)nc(SCc2cccc(Cl)c2)c1C#N	5.7	0.63	57	6.7	0.4	i	7
CCc1nc(NCCCn2ccnc2)c2oc3ccccc3c2n1	-6.3	0.69	0	1.2	1.0	.	1
Cc1ccc(C(=O)NCC(C)(C)O)cc1	0.7	0.68	4	1.1	2.8	.	-6
CCOc1ccccc1N(C(=O)c1snc(C(N)=O)c1N)C(C(=O)NCC1CCCO1)c1ccc2ncccc2c1 (stereo unspecified)	-1.7	0.66	.	3.5	-137	i	-24
CCc1nnc(NC(=O)c2ccc(S(=O)(=O)N3CCCC3)cc2)s1	-3.2	0.7	2	0.6	4.0	i	-2
COCCN(CCOC)C(=O)COC(=O)c1cc([N+](=O)[O-])ccc1Cl	-3.4	0.68	0	-2.5	3.0	i	-8
COc1ccccc1N1CCN(C(=O)CCc2ccccc2)CC1	0.8	0.65	63	-0.8	1.6	i	-2
CCn1c(SCC(=O)Nc2nnc(C)s2)nnc1-c1ccncc1	-6.1	0.65	-10	0.8	3.3	.	-13

# Some of the compounds tested; count on the stated rates, not on these rows.
